VDR inh = blocks the human vitamin D receptor; P11473; VDR-SRC2-3 peptide fluorescence polarization, 2 h; Potency, µM, inactives show max response, negative = inhibition, usual class: inhibitors; actives 0.93% (n = 400,000); active = well fitted inhibition curve with a large enough effect; inconclusive = small, poorly fitted or top-dose-only effect, or another doubt; inactive = no such curve, though single readings can be large or run the other way; also: series mostly up to about 120 µM
Target sequence (P11473 whole entry, looked up): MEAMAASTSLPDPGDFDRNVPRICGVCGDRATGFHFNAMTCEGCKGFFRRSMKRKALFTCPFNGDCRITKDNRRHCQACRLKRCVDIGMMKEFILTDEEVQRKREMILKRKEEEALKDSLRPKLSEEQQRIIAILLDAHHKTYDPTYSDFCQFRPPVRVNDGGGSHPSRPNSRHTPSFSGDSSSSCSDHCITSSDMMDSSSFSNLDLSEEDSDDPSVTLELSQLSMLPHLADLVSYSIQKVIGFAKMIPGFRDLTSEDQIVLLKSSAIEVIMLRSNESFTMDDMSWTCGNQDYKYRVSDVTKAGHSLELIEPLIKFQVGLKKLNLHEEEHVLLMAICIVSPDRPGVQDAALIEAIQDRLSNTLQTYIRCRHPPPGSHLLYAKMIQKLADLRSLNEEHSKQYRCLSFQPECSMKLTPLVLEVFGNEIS
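Fluorescence polarization assay measuring small-molecule disruption of VDR binding to the coregulator peptide SRC2-3. Compounds were pin-transferred (23 nl) into the reagent mix and incubated 2 h at room temperature before reading.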
The depositor's hits bear a star; ? = inconclusive; & = joins results of further samples. % is scaled to controls: 0 for no effect and ±100 for the full control effect; potency is read from the fitted curve at half-maximal effect. An excerpt; the hit share may differ from the screen's.

SMILES	VDR inh
CCN(CC(=O)Nc1ccc(Cl)c(S(=O)(=O)N(C)C)c1)CC(=O)NC(C)C	5%
CC(C)NC(=O)N1CC2(CCN(S(=O)(=O)c3ccccc3)CC2)C1	4%
CCc1cc(SC#N)cc(C)c1N	-22%
O=C(O)c1cccc(S(=O)(=O)N2CC=C(c3ccccc3)CC2)c1	10%
Cc1ccccc1C(=O)Nc1nnc(S(=O)(=O)N2c3ccccc3CC2C)s1 (stereo not drawn)	-2%
O=C(O)COc1ccccc1/C=C1\SC(=Nc2ccc(F)cc2)N(c2ccc(F)cc2)C1=O	-25%
COCCCNC(=O)C1CCCN(S(C)(=O)=O)C1 (stereo not drawn)	-19%
CCOC(=O)C1(Cc2ccc(OC)cc2)CCN(C(=O)c2csc(C)n2)CC1	-5%

2 records drawn at random from those above:
SMILES	VDR inh
CC(C)NC(=O)N1CC2(CCN(S(=O)(=O)c3ccccc3)CC2)C1	4%
Cc1ccccc1C(=O)Nc1nnc(S(=O)(=O)N2c3ccccc3CC2C)s1 (stereo not drawn)	-2%

(cont.)
SMILES	VDR inh
Cc1c(C(=O)NCc2ccc(Cl)cc2)sc2nc3n(c(=O)c12)CCC3	-6%
CCOc1ccc(OCC)c(NC(=O)C2CCCN(S(=O)(=O)c3c(C)noc3C)C2)c1 (stereo not drawn)	2%
N#Cc1cc(-c2ccccc2)cnc1Sc1ccc(Cl)cc1	-17%
CCC(=O)Oc1ccc2c(=O)c(-c3ccc4ccccc4n3)c(CC)oc2c1C	-2%
O=C(NCCc1ccccc1)c1ccccc1NC(=O)C1CC=CCC1C(=O)O (stereo not drawn)	-3%
COc1ccc(OCCCC(=O)Nc2cccc([N+](=O)[O-])c2C)cc1	-7%
CCOC(=O)c1cnc(-c2ccccc2)nc1-c1ccccc1	3%
COc1cccc(NC(=O)CCN2CCN(c3ccccc3)CC2)c1	-25%
Brc1ccc2nc(SCCOc3ccccc3)[nH]c2c1	4%
O=C(C1CCC1)N1CCc2cc(S(=O)(=O)N3CCN(c4ccccn4)CC3)ccc21	-6%
Cc1csc2ncc(C(=O)N(Cc3ccccc3)c3ccccn3)c(=O)n12	2%
Nc1cc(C(=O)OCC(=O)NCCCc2ccccc2)ccc1Cl	-12%
CC12CCC(=O)N1C(C(=O)Nc1nnc(SCc3ccc(F)cc3)s1)CS2 (stereo not drawn)	-6%
N#Cc1c2c(c(NCCN3CCOCC3)n3c1nc1ccccc13)CCCC2	11%
COc1ccc(-c2cc(C#N)nc(Cl)n2)cc1	-29%
COc1ccccc1NC(=S)N(CCc1c(C)[nH]c2ccccc12)Cc1cccs1	3%
COC(=O)C1=NN(C(=O)c2ccc(Cl)cc2)C(O)(c2ccccc2)C1 (stereo not drawn)	-3%
COC(=O)c1ccc(COC(=O)c2ccccc2OC)cc1	-25%
COc1cccc(C(=O)O/N=C(\N)c2ccncc2)c1	-4%
CO[C@H]1C[C@@H]2CC[C@@H](C)[C@@](O)(O2)C(=O)C(=O)N2CCCC[C@H]2C(=O)O[C@H]([C@H](C)C[C@@H]2CC[C@@H](O)[C@H](OC)C2)CC(=O)[C@H](C)/C=C(\C)[C@@H](O)[C@@H](OC)C(=O)[C@H](C)C[C@H](C)/C=C/C=C/C=C/1C	-20%
CCOc1ccc(N=Cc2c(O)cc(C)oc2=O)cc1	-20%
CCC(C)C1C(C#N)=C(N)Oc2n[nH]c(-c3ccccc3)c21 (stereo not drawn)	-12%
NCCC[C@@H](CC(=O)N[C@@H]1CCCC[C@H]1C(=O)N[C@H](CC(=O)N[C@@H](CCC(=O)O)CC(=O)O)Cc1ccccc1)NC(=O)C[C@H](CO)NC(=O)[C@@H]1CCCC[C@H]1N	0%
Cn1c(SCC(=O)N2CCCCC2)nc2c(c1=O)SCC2	12%

A second format for part of the listing above.
| VDR inh | SMILES |
| --- | --- |
| -20% | CCOc1ccc(N=Cc2c(O)cc(C)oc2=O)cc1 |
| -12% | CCC(C)C1C(C#N)=C(N)Oc2n[nH]c(-c3ccccc3)c21 (stereo not drawn) |

(more compounds)
SMILES	VDR inh
COc1cc(C(=O)NCC(=O)n2nc(C)cc2C)cc(OC)c1OC	6%
COc1ccc2[nH]c(=O)c(CN(Cc3ccco3)C(=O)c3ccccc3)cc2c1	-21%
CSc1ncccc1C(=O)OCC(=O)N(C)c1c(N)n(Cc2ccccc2)c(=O)[nH]c1=O	-9%
CCN(CC)c1ccc(NC(=O)Cn2c(C)c3cnn(-c4ccccc4)c(=O)c3c2C)c(C)c1	3%
CCCN(CC(=O)Nc1ccccc1C)C(=O)c1cc(C)oc1C	-19%
O=C(NCCOC(=O)c1ccc(S(=O)(=O)N2CCOCC2)cc1)c1cccnc1	-5%
COc1ccc(/C=C/c2nc(C#N)c(NCCN(C)C)o2)cc1OC	-4%
O=C(Nc1ccccc1[N+](=O)[O-])C1C(c2ccccc2)=C1c1ccccc1	6%
CCC(C)NC(=O)c1ccc2nc(-c3cccs3)c(-c3cccs3)nc2c1 (stereo not drawn)	-25%
Cc1[nH]n(-c2ccccc2)c(=O)c1/C=N/N1C(=O)c2cccc3cccc(c23)C1=O	-17%
Cc1cccn2c(=O)c3cc(C(=O)N(Cc4ccccc4)C(C)C)sc3nc12	-18%
CNC(=O)c1sc(-c2cccnc2)nc1C	-2%
CCOC(=O)C1CCCN(c2nc3ccccc3nc2NS(=O)(=O)c2ccc(C)cc2)C1 (stereo not drawn)	-17%
CCOC(=O)Cc1csc(NC(=O)CCS(=O)(=O)Cc2ccccc2)n1	10%
NC(CC(=O)NC(c1ccccc1)(c1ccccc1)c1ccccc1)C(=O)O (stereo not drawn)	11%
Cc1cc(-c2nn(-c3ccccc3)cc2/C=C2\SC(N)=NC2=O)ccc1OC(C)C	2%
COc1cc(OC)c2c(C)c(CC(=O)NCc3ccccc3OC)c(=O)oc2c1	6%
CCOc1ccc(C(CC(=O)O)NC(=O)COc2ccccc2OC)cc1OC (stereo not drawn)	-9%
CCCCN(C)S(=O)(=O)c1ccc(C(=O)N=c2sc3cc(NC(C)=O)ccc3n2C)cc1	-10%
CCOc1ccc(NC(=O)C2CCCN(S(=O)(=O)c3ccc4[nH]c(=O)ccc4c3)C2)cc1 (stereo not drawn)	-20%&-10%
CC(=O)c1ccc(Nc2nc3ccccc3nc2-n2nc(C)cc2C)cc1	-11%
COc1ccc(C(=O)N/N=C/c2cc3ccccc3[nH]c2=O)cc1	-7%
N=c1c(S(=O)(=O)c2ccccc2)cc2c(=O)n3ccccc3nc2n1Cc1ccco1	-22%
Cc1cc(NC(=O)CC2Oc3ccccc3NC2=O)ccc1Br (stereo not drawn)	-20%

C=CCn1c(CSCc2ccccc2)nnc1SCC(=O)NCc1ccccc1
  VDR inh = -3%
CCc1ccc(S(=O)(=O)c2nnn3c2nc(Nc2ccc(C)c(Cl)c2)c2sccc23)cc1
  VDR inh = 4%
C=CCNC(=S)N/N=C/c1cn(C)c2ccccc12
  VDR inh = -22%
Cc1ccc(OC(=O)CCC(=O)Oc2ccc(C)cc2C)c(C)c1
  VDR inh = -8%
Cc1ccc(NC(=O)CN2C(=O)CC(C)Sc3ccccc32)c(C)c1 (stereo not drawn)
  VDR inh = -16%
CCOC(=O)C1C(CC)NC(=S)NC1(C)O (stereo not drawn)
  VDR inh = -13%
CN(C)CCC(=O)C(Cc1ccccc1)c1ccccc1 (stereo not drawn)
  VDR inh = 45µM*
C/C(CC(=O)NCc1ccco1)=N\NC(=O)COc1ccc(C)cc1
  VDR inh = -7%
CN(C)Cc1ccccc1-c1ccc2ncnc(N(C)C)c2c1
  VDR inh = -4%
CCc1ccccc1NC(=O)CN1CCN(C(=O)CN2C(=O)NC3(CCCC3)C2=O)CC1
  VDR inh = 3%

Cc1cccnc1NC(=O)Cn1nc(-c2ccccc2)oc1=S
  VDR inh = ?
CCCCn1c(N)c(N(CCOC)C(=O)c2ccc(N3C(=O)c4ccccc4C3=O)cc2)c(=O)[nH]c1=O
  VDR inh = -23%
COc1ccccc1N1CCN(c2cc(=O)n(Cc3ccc(F)cc3)c(=O)[nH]2)CC1
  VDR inh = -23%
Cc1ccc(CNC(=O)C(CCC(N)=O)NC(=O)OCc2ccccc2)cc1 (stereo not drawn)
  VDR inh = -5%
O=C1[C@@H](Oc2ccccc2)[C@@H](c2ccccc2)N1c1cccnc1
  VDR inh = 11%
O=C(C(c1ccccc1)c1ccccc1)N1CCN(Cc2ccccn2)CC1
  VDR inh = -1%
CC(=O)NC12CC3CC(C1)CC(C(=O)OCC(=O)c1ccc4c(c1)OCCO4)(C3)C2
  VDR inh = 2%
Oc1ccc(C=NN=C2c3ccccc3-c3ccccc32)c(O)c1
  VDR inh = 9%
Cc1occc1C(=O)Nc1cccc(/C=C/C(=O)O)c1
  VDR inh = 14%
COCCN1C(=O)N(c2cccc(C)c2)C(=O)C1CC(=O)Nc1ccc(F)cc1 (stereo not drawn)
  VDR inh = 9%

COc1ccc(NC(=O)Cn2c(=O)n(CCc3ccccc3)c(=O)c3ccccc32)cc1
  VDR inh = 3%
O=C(/C=C/c1ccccc1[N+](=O)[O-])N1CCc2ccccc2C1
  VDR inh = 1%
CCOc1ccc(-c2c(C(=O)N/N=C/C3CC=CCC3)nnn2-c2nonc2N)cc1 (stereo not drawn)
  VDR inh = 3%
CCOC(=O)C1CCN(CCC(=O)Nc2ccc(Cl)cc2)CC1
  VDR inh = -2%
CC(C)c1ccc(NC(=O)c2cc3sc(Cl)cc3n2C)cc1
  VDR inh = 17%
COc1ccccc1CCn1c(=O)c(CCc2ccccc2)nc2cncnc21
  VDR inh = 2%
CC[C@H](C)[C@H](NC(=O)[C@H](Cc1ccc(O)cc1)NC(=O)[C@@H](NC(=O)[C@H](CCCN=C(N)N)NC(=O)[C@@H](N)CC(=O)O)C(C)C)C(=O)N[C@@H](Cc1cnc[nH]1)C(=O)N1CCC[C@H]1C(=O)O
  VDR inh = 1%
CC(C)=C1SC(N2CCOCC2)=NC1=O
  VDR inh = -4%
Cc1ccc(S(=O)(=O)c2nnn3c2nc(NC2CCCCC2)c2sccc23)cc1C
  VDR inh = -7%
CCCN1CC23C=CC(O2)C(C(=O)O)C3C1=O (stereo not drawn)
  VDR inh = 1%

Cc1ccc(S(=O)(=O)Nc2ccnc(-c3cccnc3)n2)cc1
  VDR inh = 14%
Cc1cccc(/C=N/NC(=O)Cc2ccc(Cl)cc2)c1O
  VDR inh = -19%
CCCCn1c(CN2CCN(c3ccccc3)CC2)nc2c1c(=O)n(C)c(=O)n2C
  VDR inh = -11%
Cc1ccc(N(C(=O)C2CCCO2)C2C=CS(=O)(=O)C2)cc1Cl (stereo not drawn)
  VDR inh = -5%
CCn1c(SCC(=O)Nc2ccc3c(c2)c2ccccc2n3CC)nnc1-c1cnccn1
  VDR inh = -6%
CCOc1ccc(C(=O)NCc2ccco2)cc1OCC
  VDR inh = -3%
COC(=O)c1cc(NC(=O)Cn2nc(-c3ccccc3)c3c(c2=O)CCCC3)cc(C(=O)OC)c1
  VDR inh = 0%
CCOC(=O)c1cc(-c2ccc(OC)cc2)n(CCC(=O)NC2CCC(C)CC2)c1C (stereo not drawn)
  VDR inh = 6%
CCOc1ccccc1/C=N/Nc1ccnc(=O)[nH]1
  VDR inh = 0%
CC(C(=O)O)n1cc(C#N)c(=O)[nH]c1=O (stereo not drawn)
  VDR inh = 3%

Next section (five carried over from the part before).
CCOc1ccc(C(=O)NCc2ccco2)cc1OCC
  VDR inh = -3%
COC(=O)c1cc(NC(=O)Cn2nc(-c3ccccc3)c3c(c2=O)CCCC3)cc(C(=O)OC)c1
  VDR inh = 0%
CCOC(=O)c1cc(-c2ccc(OC)cc2)n(CCC(=O)NC2CCC(C)CC2)c1C (stereo not drawn)
  VDR inh = 6%
CCOc1ccccc1/C=N/Nc1ccnc(=O)[nH]1
  VDR inh = 0%
CC(C(=O)O)n1cc(C#N)c(=O)[nH]c1=O (stereo not drawn)
  VDR inh = 3%
CCOC(=O)c1c(NC(=O)Nc2cccc(Cl)c2)sc(C)c1C
  VDR inh = -10%
CCOc1ccc(Cc2onc3c2C(=O)CC(C)(C)C3)cc1OCC
  VDR inh = -6%
Cc1nc(N2CCC(C)CC2)c2c(C)c(C(=O)Nc3ccc(C)c(F)c3)sc2n1
  VDR inh = 19%
CCCc1ccc(S(=O)(=O)N/N=C\c2ccc3c(c2)OCO3)cc1
  VDR inh = -1%
CCOC(=O)c1c(C)[nH]c(C2=NNC(=Nc3ccccc3OC)SC2)c1C
  VDR inh = ?
CCCc1cc(=O)[nH]c(SCc2ccc(C#N)cc2)n1
  VDR inh = 15%
Cc1cccc(OCC(=O)Nc2ccc(Cl)c(-c3nc4ccccc4[nH]3)c2)c1
  VDR inh = 2%
CC(C)CCN(Cc1ccco1)C(=O)c1cc2c(s1)-c1ccccc1OC2
  VDR inh = -3%
CC(=O)NC(CC(=O)OCC(=O)c1ccc(NC(=O)CC(C)C)cc1)c1ccccc1 (stereo not drawn)
  VDR inh = -14%
CCS(=O)(=O)Nc1cc(C(=O)O)ccc1C
  VDR inh = -1%

O=C(O)CC1NCCc2ccccc21 (stereo not drawn)
  VDR inh = -12%
CN(C)C(=O)c1ccc(-c2cncnc2NC2CCNCC2)cc1
  VDR inh = -5%
Cc1nn(S(=O)(=O)c2ccc(C(C)C)cc2)c(C)c1S(=O)(=O)N1CCCCCC1
  VDR inh = 14%
Cn1c(NC(=O)Cc2ccc(F)cc2)cc(=O)n(C)c1=O
  VDR inh = 6%
CC(C)c1ccc(S(=O)(=O)c2nnn3c2nc(NCCc2ccccc2)c2sccc23)cc1
  VDR inh = 6%
COc1ccc(-c2cc(C(=O)NCCCn3ccnc3)no2)cc1
  VDR inh = -17%
O=C(Nc1ccccc1)Nc1cccc(NC(=O)Nc2ccccc2)c1F
  VDR inh = 18%
O=C1CC(N2CCN(S(=O)(=O)c3ccccc3F)CC2)C(=O)N1c1ccccc1F (stereo not drawn)
  VDR inh = 2%
COC(=O)c1sc(-c2ccc(C(C)(C)C)cc2)cc1NC(=O)COCC(=O)O
  VDR inh = -15%

Screening data from PubChem BioAssay.
